# H5N1 CPE – MDCK cell protection from H5N1 avian flu; cytopathic effect, luminescence, 72 h; stronger effect = higher value; no value below 0 was filed and about half of the inactive calls have no number; reference of the scale not given here; AID 740, 2007; 96,000 compounds, 0.07% hits; inhibition, % at 50 µM; in the data active means inhibition above about 25%
# Active calls of the source: *; i = inactive.
# Start of the listing, in advance (2 entries):
SMILES,H5N1 CPE
COc1ccc(S(=O)(=O)N(C)CC(=O)Nc2ccccc2C(F)(F)F)cc1Cl,i
CCOC(=O)c1ccc(CSc2nnc(C)n2N)o1,1.3

# This part in full (from the top)
SMILES,H5N1 CPE
COc1ccc(S(=O)(=O)N(C)CC(=O)Nc2ccccc2C(F)(F)F)cc1Cl,i
CCOC(=O)c1ccc(CSc2nnc(C)n2N)o1,1.3
CCS(=O)(=O)N1CCN(C(=O)c2ccccc2)CC1,i
C=CCn1c(C)cc(-c2csc(N)n2)c1C,i
Cc1nc2c(cnn2-c2ccccc2Cl)c(=O)n1-c1ccc(C(C)C)cc1,3.9
CC(C)C[C@H](NC(=O)NC(C)C)C(=O)O,i
CC1(C)CC(C)(O)P(=O)(c2ccccc2)O1 (stereo not drawn),i
CC1Cc2ccccc2N1C(=O)c1cnsn1 (stereo not drawn),0.2
CCC(=O)Nc1cccc(-c2cnc3ccccc3n2)c1,i
O=C(CN1CCC(n2nnc3cc(C(F)(F)F)ccc32)CC1)NCc1cccs1,i
Cc1cc2nc(-c3cccnc3SCC(=O)NCc3ccco3)[nH]c2cc1C,i
COc1ccc(CCNC(=O)C2CCN(S(=O)(=O)c3cc(OC)ccc3OC)CC2)cc1,i
O=C1c2ccccc2NC(c2ccc(-c3ccc(Br)cc3)o2)N1O (stereo not drawn),8.8
O=c1oc(-c2cccs2)nc2ccc(Br)cc12,0.5
Cn1c2ccc(Cl)cc2c2nc3ccccc3nc21,i
O=C(c1ccccc1)c1c[nH]c(C(=O)NCCCN2CCOCC2)c1,0.2
O=C1NC2=C(C(=O)CCC2)C(c2ccc3ncccc3c2)N1 (stereo not drawn),i
COc1ccc(CN(Cc2cccnc2)S(=O)(=O)c2ccc(-n3cnnn3)c(C)c2)cc1OC,1.8
COc1ccccc1C(=O)N1CCN(C2CCN(Cc3ccccc3)CC2)CC1,i
O=C1c2ccccc2C(Nc2ccc3c(c2)OCCO3)N1Cc1ccccc1 (stereo not drawn),i

# Six compounds already listed, arranged by heavy-atom count, falling.
SMILES,H5N1 CPE
O=C(CN1CCC(n2nnc3cc(C(F)(F)F)ccc32)CC1)NCc1cccs1,i
COc1ccc(S(=O)(=O)N(C)CC(=O)Nc2ccccc2C(F)(F)F)cc1Cl,i
O=C1c2ccccc2NC(c2ccc(-c3ccc(Br)cc3)o2)N1O (stereo not drawn),8.8
CCOC(=O)c1ccc(CSc2nnc(C)n2N)o1,1.3
CC1Cc2ccccc2N1C(=O)c1cnsn1 (stereo not drawn),0.2
CC(C)C[C@H](NC(=O)NC(C)C)C(=O)O,i

# Next part
SMILES,H5N1 CPE
Cc1ccc(C)c(OCC(=O)Nc2nonc2NC(=O)COc2cc(C)ccc2C)c1,i
O=[N+]([O-])c1ccccc1NCCNc1ncc(C(F)(F)F)cc1Cl,i
C(=N\N1CCN(C2c3ccccc3-c3ccccc32)CC1)/c1ccncc1,0.6
CCCC(=O)Nc1cccc(-c2nc3cc(C)c(C)cc3o2)c1,0.1
COc1ccccc1N1CCN(C(=O)c2ccc(S(=O)(=O)N3CCCCC3)cc2)CC1,1.1
CC(C(=O)Nc1sc2c(c1C(=O)NCc1ccco1)CCCC2)N1C(=O)c2ccccc2C1=O (stereo not drawn),i
O=C(Nc1cc2c(oc1=O)CCCC2=O)c1ccc(Cl)cc1,1.0
CCCCc1nc2sc3c(SCC(=O)NCc4ccco4)ncnc3c2c2c1CCC2,i
CCOC(=O)C1C2C=CC3(CN(c4ccc(Cl)c(F)c4)C(=O)C13)O2 (stereo not drawn),i
CCC(CC)C(=O)NCCc1cc2c(OC)ccc(OC)c2[nH]c1=O,0.4
Nc1ccc(C23CC4CC(CC(CO)(C4)C2)C3)cc1,0.8
Cc1ccccc1Nc1nc(N)nc(CSc2nnnn2-c2ccccc2)n1,i
Cc1ccc2nc(N3CCN(Cc4ccc(F)cc4)C3=O)c(C)cc2c1,0.0
C=CCCC(=O)Nc1nc(C)c(-c2csc(Nc3ccccc3OC)n2)s1,i
CC(C)CCn1c(=O)c2ccccc2n2c(CN3C(=O)NC4(CCC(C)CC4)C3=O)nnc12 (stereo not drawn),i
COC(=O)c1[nH]c2ccccc2c1NC(=O)CN1CCN(C(=O)c2ccco2)CC1,1.5
Cc1ccc(O)c(NC(=O)C2CC(c3c(F)cccc3Cl)=NO2)c1 (stereo not drawn),1.2
O=C(Nc1cccc2c1CCCC2)c1cc([N+](=O)[O-])ccc1Cl,i
O=C(COc1ccc(Br)cc1)N1CCN(Cc2ccncc2)CC1,0.7
COc1ccc(NC(C)C(=O)Nc2ccc(C(C)(C)C)cc2)cc1Cl (stereo not drawn),i

# Random excerpt: 6 compounds from above.
SMILES,H5N1 CPE
Cc1ccc2nc(N3CCN(Cc4ccc(F)cc4)C3=O)c(C)cc2c1,0.0
Nc1ccc(C23CC4CC(CC(CO)(C4)C2)C3)cc1,0.8
O=C(COc1ccc(Br)cc1)N1CCN(Cc2ccncc2)CC1,0.7
COc1ccccc1N1CCN(C(=O)c2ccc(S(=O)(=O)N3CCCCC3)cc2)CC1,1.1
COc1ccc(NC(C)C(=O)Nc2ccc(C(C)(C)C)cc2)cc1Cl (stereo not drawn),i
O=C(Nc1cc2c(oc1=O)CCCC2=O)c1ccc(Cl)cc1,1.0

# Further entries
SMILES,H5N1 CPE
CCOc1ccc(NC(=O)C(=O)NCCCn2ccnc2)cc1,0.4
O=c1c2[nH]c3ccccc3c2ncn1CCCn1ccnc1,i
Cc1csc2nc(CSc3nc4ccccc4o3)cn12,i
CCOc1ccc(/C(=N\O)C(C)NO)cc1 (stereo not drawn),i
CCOC(=O)N1CCN(c2ncnc3c2[nH]c2ccc(F)cc23)CC1,1.1
CSc1nnc(-c2sc(-c3ccccc3)nc2C)n1C,1.6
COC(=O)c1c(C)c2c(C)cc3ccccn3c-2c1C(=O)OC,2.0
CCOc1cccc2cc(-c3cn4cc(C)ccc4n3)c(=O)oc12,0.5
O=C1c2cccnc2C(=O)N1Cc1ccco1,i
Cc1c(C)n(C)c2ccc(C(=O)NCc3cccs3)cc12,i
CC(C)(CNC(=O)c1cc2ccccc2o1)N1CCOCC1,i
COc1cccc(-n2sc3c(c2=S)-c2cc(OC)ccc2NC3(C)C)c1,i
Cc1ccccc1C(=O)NC(C)C(c1cccs1)N1CCOCC1 (stereo not drawn),0.1
Nc1cc(-c2ccc(Br)cc2)nn1S(=O)(=O)c1cccc2nsnc12,i
Nc1nnc2c(n1)CCCC2,0.4
CCN(CC)C(C(=O)Nc1ccc(C(C)C)cc1)c1ccc2c(c1)OCO2 (stereo not drawn),0.7
CCc1ccc(OCC(=O)NC(=S)Nc2cccc(CO)c2)c(Br)c1,i
COCC(=O)N(CCc1ccc(OC)c(OC)c1)Cc1nc2ccccc2c(=O)[nH]1,0.2
Cc1ccc(Cn2c(=O)cc(C(=O)O)c3ccccc32)cc1,i
CC(C)c1ccc(NC(=O)C(c2ccc3c(c2)OCO3)N2CCC3(CC2)OCCO3)cc1 (stereo not drawn),i

# Single values from the list.
# H5N1 CPE, COC(=O)c1c(C)c2c(C)cc3ccccn3c-2c1C(=O)OC = 2.0
# H5N1 CPE, Cc1ccccc1C(=O)NC(C)C(c1cccs1)N1CCOCC1 (stereo not drawn) = 0.1
# H5N1 CPE, CSc1nnc(-c2sc(-c3ccccc3)nc2C)n1C = 1.6

# (cont.)
SMILES,H5N1 CPE
CCOC(=O)c1cn(-c2ccc(F)c(F)c2)c2c(F)c(F)c(F)c(F)c2c1=O,3.4
COCCN1Cc2cccc(C(=O)Nc3ccc4c(c3)OCCO4)c2C1=O,3.3
Cc1cccc(NC(=O)CSc2nc3ccc(N4C(=O)c5ccccc5C4=O)cc3s2)c1C,1.3
Cc1nn(-c2ccccc2)c(Cl)c1/C=N/NC(=O)c1ccco1,i
Cc1nnc(SCC(=O)N/N=C/c2cn(-c3ccccc3)nc2-c2ccccc2)n1-c1ccccc1,1.0
CSc1nc2ncc3c(n2n1)CC1c2ccccc2CCN1C3=O (stereo not drawn),4.8
CCOC(=O)c1sc(NC(=O)C2CC=CCC2C(=O)O)nc1C (stereo not drawn),0.3
O=C(CSc1cn(Cc2ccccc2)c2ccccc12)Nc1nccs1,i
COc1cc(SC#N)ccc1N=Cc1c(C)[nH]n(-c2ccc(Cl)cc2)c1=O,i
O=C(Nc1nc(-c2cc3ccccc3oc2=O)cs1)c1ccc(Br)o1,0.2
C=CCNC(=S)N/N=C/c1ccc(OCc2ccccc2Cl)cc1,i
COc1ccc(CSC2=NCCN2)cc1Cl,i
O=C(Nc1nccc(-c2cccs2)n1)c1ccccc1Cl,3.5
COc1ccc(Cl)c(NC(=O)Nc2c(C)n(-c3ccccc3)c(=O)n2C)c1,i
Cc1cc(Br)ccc1OCCCCNCCO,i
COC(=O)c1c(-c2ccco2)csc1NC(=O)C1CC=CCC1C(=O)O (stereo not drawn),i
CCN(CC)c1ccc(NC(=O)Nc2ccccc2C(F)(F)F)cc1,i
CN(C)CCNc1nc2c(c(=O)[nH]c(=O)n2C)n1CC(O)COc1ccc(Cl)cc1 (stereo not drawn),0.6
CCOC(=O)C1CCN(S(=O)(=O)c2ccc(C(=O)OC)cc2)CC1,2.0
O=C(CNC(=S)N(Cc1ccc(F)cc1)C1CCCCC1)NC1CC1,i
Cc1cc(C)cc(C(=O)N2CC(=O)Nc3ccccc32)c1,0.8
OC1(c2cccnc2)CC2CCC(C1)N2Cc1nnnn1Cc1ccccc1 (stereo not drawn),1.3
CCOC(=O)c1c(NS(C)(=O)=O)sc2c1CCC(C)C2 (stereo not drawn),i
Cn1c(=O)cc(OCC(=O)NCCCN2CCN(c3cccc(Cl)c3)CC2)c2ccccc21,0.4
O=c1cc(-c2ccncc2)oc2ccccc12,16
CCn1nc(CC(=O)Nc2nnc(CC(=O)N3CCCC3)s2)c2ccccc2c1=O,i
COc1ccc(-n2c(SCC(=O)NCc3cccs3)nnc2-c2ccoc2C)cc1,1.0
COCc1nnc(NC(=O)CSCc2ccccc2)s1,i
CCCOC(=O)c1cccc(NC(=O)c2cccnc2)c1,2.0
CCC(=O)N1CC(C)C(=O)Nc2ccccc21 (stereo not drawn),0.2
Cc1ccc(NC(=S)C2=C(O)c3ccccc3N(C)S2(=O)=O)cc1,9.9
O=C(NCC(=O)N(CC1CCCO1)C(C(=O)NC1CCCCC1)c1ccc(F)cc1)c1ccco1 (stereo not drawn),i
N#C[C@H]1[C@H](c2ccccc2)[C@](C#N)(C(=O)c2ccccc2)[C@@H]2C=Cc3ccccc3N21,3.9
COc1ccccc1CNC(=O)CCCn1c(=O)c2ccccc2n(CC(=O)NC2CCCC2)c1=O,i
O=C(CN1CCOCC1)Nc1ccccc1,0.9
COc1ccc(-c2nc(CSCC(=O)N3CCc4ccccc43)c(C)o2)cc1OC,i
Cn1cc(C(=O)c2ccc(Cl)cc2Cl)cc1C(=O)O,i
O=C(NCc1ccccc1)c1sc(=S)n2c1[nH]c(=O)c1ccccc12,0.0
CCOC(=O)c1[nH]c2c(c1C)C(=O)CC(c1ccc(F)cc1)C2 (stereo not drawn),i
CCCNC(=O)c1ccccc1NC(=O)CSCc1ccc(OC)cc1,i
Cc1ccc(C2C(C#N)=C(N)Oc3n[nH]c(-c4ccccc4)c32)o1 (stereo not drawn),i
S=c1[nH]ncn1/N=C/c1ccccn1,i
Cc1nn(-c2ccccc2)c2[nH]c(=O)c(CNCCN3CCOCC3)cc12,i
COc1ccc(C(=O)NCCCCCC(=O)O)cc1OC,i
CCc1ccc(NS(=O)(=O)c2cc(OC)ccc2OC)cc1,1.9
O=S(NCc1ccco1)C12CC3CC(CC(C3)C1)C2 (stereo not drawn),i
COC(=O)CCC(=O)Nc1cccc(Cl)c1,i
CCCn1c(SCC(=O)NCc2ccco2)nnc1C(C)C,0.2
Cc1ccsc1C(=O)OCc1nc2ccccc2c(=O)[nH]1,i
COc1ccccc1NC(=O)CN1CCC(n2c(C)nc3cc(F)ccc32)CC1,1.0
COc1ccccc1NC(=O)CC1C(=O)NCCN1C(=O)Nc1ccc(Cl)c(Cl)c1 (stereo not drawn),0.3
CC(=O)NC12CC3CC(C1)CC(C(=O)OCC(=O)Nc1ncc(Cl)c(C)c1Cl)(C3)C2,i
Cc1cc(C)c(C)c(OCCCCn2cnc3ccccc3c2=O)c1,i
CCn1c(SCC(=O)N/N=C/C=C\c2ccccc2[N+](=O)[O-])nc2ccccc21,i
CSc1cccc(NC(=O)CN(c2ccc(C)cc2C)S(C)(=O)=O)c1,2.8
CC(=O)c1c(C)nc2nonc2c1N,0.3
Cc1cc(C)c(C#N)c(SCC2COc3ccccc3O2)n1 (stereo not drawn),4.1
CC(=O)c1c(C)nc(-c2ccccc2)nc1NC(=O)C(C)C,0.7
COc1cccc(-c2cc(C(=O)N3CCCCCC3)no2)c1,1.3
CCCn1c(Cc2ccccc2)n[nH]c1=S,0.6

# Next part
SMILES,H5N1 CPE
Cn1c(O)c(/C=N/c2ccccn2)c(=O)n(C)c1=O,i
CCn1c(-c2ccc(N(C)C)cc2)nc2ccccc21,i
CCOc1ccc(C2N(c3ccc(F)cc3)C(=O)C3CCCN32)cc1 (stereo not drawn),0.4
COc1ccc2c(c1)c1ncn(Cc3ccco3)c(=O)c1n2C,i
Cc1onc(-c2ccccc2Cl)c1C(=O)N1C=CC(C(F)(F)Cl)=NCC1,1.8
CCCCn1nnnc1NCc1cc(OC)c(OC)c(OC)c1,0.7
Cc1cc(C)c(NC(=O)C2CC(=O)N(c3ccc4c(c3)OCCO4)C2)c(C)c1 (stereo not drawn),i
O=S(=O)(Nc1nc2ccccc2[nH]1)c1ccc2ccccc2c1,2.4
COc1cc(OC)cc(C(=O)NCC(=O)N2CCCCC2)c1,1.5
Cc1cc(C(=O)CSCCCn2c(=O)[nH]c3ccccc32)c(C)n1C,1.3
O=C(C1CC1)N1CCc2cc(S(=O)(=O)NC3CCN(Cc4ccccc4)CC3)ccc21,0.3
COc1cc(OC)nc(Oc2ccccc2C(=O)Oc2ccc(C)cc2)n1,1.0
CC(=O)Nc1ccc(S(=O)(=O)Nc2nc3n(n2)C(c2ccccc2)CC(=O)N3)cc1 (stereo not drawn),0.4
CCC(=O)Nc1nc2n(n1)C(c1ccc(OC)cc1)C=C(c1ccccc1)N2 (stereo not drawn),0.1

# Not all compounds are listed (hit frequency here may not be typical).
